Bioassay records as filed in PubChem BioAssay.
RGS16-Gao – RGS16-Galphao interaction regulator (human); actives 0.38% (n = 220,000); bead-based flow cytometry RGS16-Galphao binding, fluorescence; actives lie on both sides; binding response (% of control), % at 10 µM; AID 1441; O15492+P09471;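 active = below 25% or above 175%, edge rows of some plates excepted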;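 note: Galphao activated by GDP with aluminum fluoride before binding; 100% = wells without compound and 0% = beads without RGS; some results beyond the cut were filed as inactive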
Target sequence (O15492 whole entry, looked up): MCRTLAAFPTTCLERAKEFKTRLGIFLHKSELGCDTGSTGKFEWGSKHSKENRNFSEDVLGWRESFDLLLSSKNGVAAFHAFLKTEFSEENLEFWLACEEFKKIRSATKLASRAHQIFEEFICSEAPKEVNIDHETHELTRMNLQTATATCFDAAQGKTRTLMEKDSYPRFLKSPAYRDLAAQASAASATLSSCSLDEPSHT
Target sequence (P09471 whole entry, looked up): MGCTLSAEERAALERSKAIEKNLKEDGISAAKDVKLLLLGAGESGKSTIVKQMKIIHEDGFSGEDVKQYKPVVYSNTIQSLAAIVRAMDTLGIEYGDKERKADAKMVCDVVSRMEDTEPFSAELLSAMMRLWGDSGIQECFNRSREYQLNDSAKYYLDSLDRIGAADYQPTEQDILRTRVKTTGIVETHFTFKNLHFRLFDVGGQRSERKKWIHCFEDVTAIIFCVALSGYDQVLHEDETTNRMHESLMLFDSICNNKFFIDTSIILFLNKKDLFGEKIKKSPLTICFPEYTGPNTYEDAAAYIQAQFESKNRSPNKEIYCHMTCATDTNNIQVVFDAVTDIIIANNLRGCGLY
PKD1 inh – PKD1 (human) kinase inhibition; AID 797; PKD1 kinase fluorescence polarization assay; inhibition, %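 (about 10 µM by stock and volumes)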; Q15139; actives 0.056% (n = 200,000);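 active = inhibition of 50% or more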;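 note: controls were vehicle for no effect and a reference inhibitor for full effect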
Insulin prom inh – TRM-6 insulin promoter activity inhibition | TRM-6 cells (human fetal islet line), insulin promoter-eGFP reporter, imaging; reporter expression induced with tamoxifen | inhibition, % at 2 µM | actives 0.9% (n = 130,000) | AID 1273;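 active = inhibition above the mean plus 3 SD, with well images judged a real hit on visual review, cut at about 60% in these data, passing the limit was not always enough; inconclusive = inhibition over the cutoff but images rejected on review; inactive = inhibition not above the cutoff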
HSV replic up – HSV replication enhancement; actives 0.005% (n = 220,000); HSV replication augmentation in cells, fold increase; maximum fold increase;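 active = peak rise of 1.5-fold or more in the series; inconclusive = self-fluorescent or not available for retest; tested in PC3 cells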;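 note: first round at 10 µM; read as green reporter fluorescence; hits show the peak of a series up to 25 µM; 1 = signal of infected wells without compound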
GALR2 agonist – agonists of human galanin receptor 2 (GALR2) | GALR2-expressing cells, agonist activation read-out | O43603 | activation, %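 (tested at 5 µM)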 | actives 0.48% (n = 140,000);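 active = above mean plus 3 SD of all compounds, about 5% in these data, not always enough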;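 note: 0% = vehicle buffer wells and 100% = reference agonist at full effect; tested in CHO reporter cells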
Target sequence (O43603 whole entry, looked up): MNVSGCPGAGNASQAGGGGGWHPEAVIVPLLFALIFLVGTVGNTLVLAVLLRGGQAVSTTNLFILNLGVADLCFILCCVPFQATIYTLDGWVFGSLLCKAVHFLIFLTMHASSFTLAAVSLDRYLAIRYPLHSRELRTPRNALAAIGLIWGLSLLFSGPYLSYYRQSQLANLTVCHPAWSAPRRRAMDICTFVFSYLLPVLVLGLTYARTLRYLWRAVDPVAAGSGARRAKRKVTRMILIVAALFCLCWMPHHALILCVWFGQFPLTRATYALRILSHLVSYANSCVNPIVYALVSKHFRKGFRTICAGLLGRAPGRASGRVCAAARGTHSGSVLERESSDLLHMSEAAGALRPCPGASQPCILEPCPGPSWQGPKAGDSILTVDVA
Insulin prom inh cell count – further read-out of Insulin prom inh, marked with its call; normalized cell count, %; measured here: cell count, toxicity; reference of the scale not given here;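 cells exposed to compound for 48 h; stained nuclei by imaging scaled within each plate; lower means fewer cells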
HSV replic up primary fold – second read-out of HSV replic up, no call of its own (marks repeat the call); fold increase; compound at 10 µM; measured here: primary screen fold increase 10 uM; tested in PC3 cells;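 GFP signal in the first replicate; 1 = infected wells without compound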
Starred values were filed as active, the others as inactive; i = inactive; ? = inconclusive; . = not tested or not shown.

SMILES | RGS16-Gao | PKD1 inh | Insulin prom inh | Insulin prom inh cell count | HSV replic up | HSV replic up primary fold | GALR2 agonist
O=C(Nc1ccc2c(c1)OCCO2)C1CCC1 | 104 | -6 | -125 | 64 | i | 0.86 | -2.3
CCc1cccc2c(C#N)cn(CCOc3ccccc3OC)c12 | 99 | 0 | 42 | 99 | i | 0.9 | -3.3
CCN1CCN(c2cc(-c3ccccc3)nc3cc(-c4cccc(F)c4)nn23)CC1 | 104 | -5 | 67 | 163 | i | 0.48 | 1.3
COc1ccc(-c2nc3c(c(=O)[nH]c(=O)n3Cc3ccccc3)n2Cc2ccccc2)cc1 | 103 | 7 | 9 | 93 | i | 0.84 | -3.1
CCC(C)NC(=S)N1CCN(Cc2ccc3c(c2)OCO3)CC1 (stereo unspecified) | 101 | -1 | . | . | i | 0.7 | .
CCN(CC)CC(=O)Nc1nc(-c2ccc(Cl)cc2)cs1 | 100 | -3 | 48 | 60 | i | 0.9 | 0.1
COc1ccccc1C(=O)C1CCCN(C(=O)c2cc(C(C)C)no2)C1 (stereo unspecified) | 102 | 1 | -72 | 112 | i | 1.1 | .
CCOc1ccccc1C(=O)N1CCOCC1 | 103 | -12 | 31 | 55 | i | 0.93 | -1.8
CCN(CC)CCNC(=O)c1ccc(NC(=O)c2cn(-c3ccccc3)nc2-c2cccs2)cc1 | 98 | -1 | . | . | i | 0.64 | .
C=CCn1c(=N)n(CC(O)COc2ccc(OC)cc2)c2ccccc21 (stereo unspecified) | 103 | 1 | . | . | i | 0.9 | -1.3
CC/C(O)=C1\C(=O)CCCC1=NCCc1c(C)[nH]c2ccc(C)cc12 | 105 | . | . | . | i | 0.99 | .
CCC1CCCCN1C(=O)CSC1=NN2CCCC(=O)N=C2S1 (stereo unspecified) | 98 | . | . | . | i | 0.66 | .
CCCS(=O)(=O)c1c(S(=O)(=O)CCC)c2ccc(C(N)=O)cn2c1C(=O)OC | 109 | -2 | -27 | 101 | i | 0.99 | .
CC(=O)NC(CC(=O)NC1CCCCCC1)c1ccccc1 (stereo unspecified) | 106 | -5 | -30 | 139 | i | 1.1 | -1.3
CCCCCCc1c(O)nc(SCCN2CCOCC2)[nH]c1=O | 94 | 0 | 0 | 65 | i | 0.95 | .
COCc1nc2ccccc2n1Cc1ccccc1C | 100 | -8 | . | . | i | 1 | .
COc1ccccc1-n1c(-c2ccccc2)n[nH]c1=S | 110 | 1 | . | . | i | 0.95 | .
Cc1ccc2cc(CN(CC3CCCO3)S(=O)(=O)c3ccc4c(c3)OCCO4)c(=O)[nH]c2c1C (stereo unspecified) | . | -6 | 26 | 55 | i | 0.92 | -0.1
CCC(C)Sc1nnc(Cc2cc(=O)[nH]c(=O)[nH]2)n1-c1ccc(F)cc1 (stereo unspecified) | 97 | -5 | . | . | i | 1.1 | -0.8
CC(C)Cn1c(N)c(C(=O)COC(=O)c2cc(-c3ccco3)nc3ccccc23)c(=O)n(C)c1=O | 92 | 3 | -11 | 138 | . | . | -0.2
CCOCCCn1c(SCC(=O)NC(C)(C)C)nc2ccccc2c1=O | 99 | -2 | . | . | i | 0.96 | 0.3
CCOC(=O)CSc1nc2c(sc(=S)n2Cc2ccco2)c(=O)n1-c1ccc(F)cc1 | 94 | -7 | 6 | 70 | i | 0.89 | -2.3
O=C(Nc1ccc(C(=O)N2CCOCC2)cc1)Nc1ccc(Cl)cc1Cl | 105 | 5 | . | . | i | 0.85 | .
Cc1ccccc1N(CC(=O)N/N=C/c1ccccc1Cl)C(=O)c1ccccc1 | 95 | 6 | 22 | 105 | i | 0.88 | -1.8
CCN(CC)CC#CC(C)(C)OC(C)=O | . | -17 | 3 | 70 | i | 0.76 | -1.9

Brought forward from above: 2 entries; new compounds follow.
SMILES | RGS16-Gao | PKD1 inh | Insulin prom inh | Insulin prom inh cell count | HSV replic up | HSV replic up primary fold | GALR2 agonist
Cc1ccccc1N(CC(=O)N/N=C/c1ccccc1Cl)C(=O)c1ccccc1 | 95 | 6 | 22 | 105 | i | 0.88 | -1.8
CCN(CC)CC#CC(C)(C)OC(C)=O | . | -17 | 3 | 70 | i | 0.76 | -1.9
O=C1CCC([N+](=O)[O-])C(c2cc3c(cc2Cl)OCO3)N1 (stereo unspecified) | 101 | 0 | . | . | i | 0.93 | .
CCC(Sc1nc2n[nH]c(C)c2c(=N)n1-c1ccc(C)c(Cl)c1)C(=O)N1CCOCC1 (stereo unspecified) | 96 | -4 | . | . | i | 1 | 1.5
CCOC(=O)c1ccc(NC2OC(=O)c3ccccc32)cc1 (stereo unspecified) | . | -3 | 19 | 144 | i | 0.96 | -1.2
COc1ccc(CS(=O)(=O)/C(Cl)=C(/Cl)C(=O)Nc2ccc(OC)nc2)cc1 | 104 | 4 | -87 | 10 | i | 0.6 | -4.4
OCC12COC(c3ccccc3)N1C(c1ccccc1)OC2 (stereo unspecified) | 103 | 1 | 27 | 75 | i | 1 | -0.7
O=C(C1CCCO1)N1CCN(Cc2nc3ccccc3c(=O)[nH]2)CC1 (stereo unspecified) | 102 | 15 | 52 | 108 | i | 0.94 | -0.3
N#Cc1c(NC(=O)CN2CCN(C(=O)c3ccco3)CC2)sc2c1CCCCC2 | 107 | -3 | 38 | 133 | i | 0.89 | -0.1
COc1ccc(C2=NCCc3cc(OC)c(OC)cc32)cc1OC | 105 | -3 | 20 | 163 | i | 0.93 | -1.1
COc1ccc(OC)c(-n2c(=O)c3ccccc3c3ccccc3c2=O)c1 | 98 | 1 | 33 | 146 | i | 0.87 | -1.2
CC(C)C1C(c2ccccc2)NC(c2ccccc2)CC1(O)c1ccc(F)cc1 (stereo unspecified) | 97 | . | . | . | i | 0.94 | .
COc1cc(/C=N/N2CCOCC2)ccc1OC(=O)c1ccco1 | 86 | -6 | 7 | 73 | i | 0.93 | .
O=C(Nc1ccccn1)c1ccc([N+](=O)[O-])o1 | 102 | -16 | -13 | 73 | i | 0.65 | -0.6
CC(=O)NC(CCCNC(=S)NC1CCCCC1)C(=O)O (stereo unspecified) | 94 | 0 | . | . | i | 1 | .
O=C(Cc1sc(-c2ccccc2Cl)nc1-c1ccccc1)Nc1ccc(F)cc1 | 101 | 0 | . | . | i | 1.1 | -1.5
O=C(NNc1cccc(Cl)n1)c1c(Cl)cccc1Cl | 102 | 3 | 15 | 176 | i | 0.93 | -0.3
COc1ccc(Cn2nnnc2CN(Cc2cc3cc(C)ccc3[nH]c2=O)C2CCCC2)cc1 | 102 | -19 | 23 | 143 | i | 1 | -1.9
O=C(CCC(=O)OCc1ccc(C(=O)Oc2ccc(Cl)cc2)cc1)Nc1ccccc1 | 106 | -3 | . | . | i | 0.97 | -2.1
Cc1c(C#N)c(N=CN(C)C)c(C(=O)c2ccccc2)n1-c1ccccc1 | 100 | -7 | 43 | 110 | i | 1 | -2.2
CCOC(=O)N1CCC(Nc2c(NCCCOC)c(=O)c2=O)CC1 | 100 | -7 | . | . | i | 0.9 | -0.7
S=C(NCCc1ccccc1)N1CCN(C(c2ccccc2)c2ccccc2)CC1 | 101 | -10 | -12 | 116 | i | 0.95 | -1.8
Nc1c(-c2ccccc2)c(CSc2nc3ccccc3[nH]2)nn1-c1cccc(Cl)c1 | 122 | 0 | -55 | 56 | i | 0.99 | -0.3
O=C(NCc1ccc(N2CCCC2=O)cc1)NC1CCCCC1 | 111 | -6 | 33 | 97 | i | 1 | -0.5
Cc1nnc(NC(=O)Cn2cnc3c2c(=O)n(C)c(=O)n3C)s1 | 100 | 3 | -38 | 95 | i | 1 | -2.2
CCCc1cc2c(cc1NC(=O)c1ccc(C)cc1)OCO2 | 107 | -14 | . | . | i | 0.94 | -3.4
CCOC(=O)c1sc(SC)c2c1CCC/C2=N/OC | 101 | . | . | . | i | 0.96 | .

Given tab-delimited: entries from further up
molecule	RGS16-Gao	PKD1 inh	Insulin prom inh	Insulin prom inh cell count	HSV replic up	HSV replic up primary fold	GALR2 agonist
COc1ccc(C2=NCCc3cc(OC)c(OC)cc32)cc1OC	105	-3	20	163	i	0.93	-1.1
O=C(NCc1ccc(N2CCCC2=O)cc1)NC1CCCCC1	111	-6	33	97	i	1	-0.5

Some entries already given, reduced to HSV replic up.
Compound	HSV replic up
Cc1nnc(NC(=O)Cn2cnc3c2c(=O)n(C)c(=O)n3C)s1	i
Cc1c(C#N)c(N=CN(C)C)c(C(=O)c2ccccc2)n1-c1ccccc1	i

(continued)
SMILES | RGS16-Gao | PKD1 inh | Insulin prom inh | Insulin prom inh cell count | HSV replic up | HSV replic up primary fold | GALR2 agonist
Cc1ccc(-c2nnc(SCC(=O)NC3CCS(=O)(=O)C3)nc2-c2ccc(C)cc2)cc1 (stereo unspecified) | 86 | -3 | 0 | 120 | i | 0.64 | 0.4
O=C(NC(=S)NCC1CCCO1)C(c1ccccc1)c1ccccc1 (stereo unspecified) | 102 | 5 | . | . | i | 0.95 | -0.3
CCOc1ccc(-c2nnc(-c3cccs3)o2)cc1 | 59 | -4 | -3 | 60 | i | 0.83 | -1.8
COc1cc(C)ccc1OCCOCCOc1ccc([N+](=O)[O-])cc1 | 101 | -5 | -21 | 103 | i | 1.1 | -0.7
Nc1n[nH]c(=S)n1-c1ccc(Cl)cc1 | 82 | . | . | . | i | 0.98 | .
COc1ccc(C(=O)Nc2nc3ccc(S(C)(=O)=O)cc3s2)cc1 | 98 | -8 | 50 | 116 | . | . | -2.8
Cc1ccc(-c2cc(C)nc3nc(N)nn23)cc1 | 110 | -4 | 22 | 53 | i | 1 | -0.6
O=C(Cc1cccc2ccccc12)Nc1ccc(-c2cc3ccccc3oc2=O)cc1 | 119 | 15 | 17 | 90 | ? | . | 1.7
Cc1nc2ccccc2cc1OCc1ccc(F)cc1 | 101 | 7 | . | . | i | 0.84 | -4.1
COc1ccc(SN=C2C(C)=CC(=O)C=C2C)cc1 | 104 | 2 | 11 | 169 | i | 1 | .
CCN(CCC(=O)Nc1ccc(Br)c(C)c1)Cc1ccccc1 | 96 | -2 | -6 | 154 | i | 0.85 | 0.4
CCCN(CCC)CCCNS(=O)(=O)c1ccc2c(c1)oc(=O)n2C | 104 | -1 | -20 | 88 | i | 0.82 | -0.6
CCOc1ccc(S(=O)(=O)Nc2ccccn2)c2ccccc12 | 102 | -3 | 20 | 109 | i | 0.99 | -0.5
Cc1ccc2nc(SCC(=O)c3ccc4c(c3)NC(=O)CO4)[nH]c2c1 | 102 | -5 | . | . | i | 0.98 | .
O=S(=O)(NCc1cccnc1)c1cccs1 | 96 | -8 | . | . | i | 0.96 | -1.1
COc1cccc(NC(=O)COc2ccc(C)cc2)c1 | 80 | -5 | -37 | 83 | i | 1 | -0.8
COc1ccc(C(C(=O)NCC2CCCO2)N(C(=O)CNC(=O)c2cccs2)c2ccc(NC(C)=O)cc2)cc1OC (stereo unspecified) | 98 | -7 | . | . | i | 1 | .
CCOC(=O)c1cc2c(ccn2C)n1CC(=O)N1CCC(Cc2ccccc2)CC1 | 62 | -5 | -6 | 119 | i | 0.85 | -1.3
Cc1cc(C)n(-c2ccc(C(=O)Nc3nnc(C4CC4)s3)cc2)n1 | 101 | 3 | 40 | 98 | i | 0.94 | 0.3
c1cnc2ccc(C(c3nnnn3C3CCCC3)N3CCSCC3)cc2c1 (stereo unspecified) | 99 | -3 | -10 | 103 | i | 0.92 | -0.3
COc1ccccc1-c1nc(C#N)c(N2CCN(c3ccccc3)CC2)o1 | 75 | 2 | 31 | 132 | i | 1 | -2.7
CCOC(=O)c1[nH]n(-c2ccc(Cl)cc2)c(=O)c1C | 111 | -21 | 19 | 93 | i | 1 | -0.8
CCOCCCNC(=S)Nc1ccc2nc3n(c(=O)c2c1)CCCCC3 | 148 | -9 | 13 | 105 | i | 0.99 | .
COc1cc(/C=N/NC(=O)CCn2c3ccccc3c3ccccc32)cc(OC)c1OC | 102 | -5 | . | . | i | 1 | 0.2
CC(=O)C1=C(O)C(=O)N(CCc2c[nH]c3ccccc23)C1c1ccco1 (stereo unspecified) | 101 | 1 | 35 | 141 | i | 0.75 | -0.1
COc1ccc(NC(=O)CCn2cccc2)c(OC)c1 | 105 | -9 | . | . | i | 0.97 | .
COc1cccc(-c2nn(-c3ccccc3)cc2C(=O)OCC(=O)Nc2ncc(Cl)cc2Cl)c1 | 97 | 3 | . | . | i | 1.1 | -1.1
CCOc1ccc(NC(=S)NC(C)CCc2ccccc2)cc1 (stereo unspecified) | 117 | 7 | . | . | i | 0.92 | .

2 records picked at random from those above, as already listed:
SMILES | RGS16-Gao | PKD1 inh | Insulin prom inh | Insulin prom inh cell count | HSV replic up | HSV replic up primary fold | GALR2 agonist
CCN(CCC(=O)Nc1ccc(Br)c(C)c1)Cc1ccccc1 | 96 | -2 | -6 | 154 | i | 0.85 | 0.4
O=C(NCc1ccc(N2CCCC2=O)cc1)NC1CCCCC1 | 111 | -6 | 33 | 97 | i | 1 | -0.5
